TRPML1 inh – human mucolipin-1 channel inhibition; Q9GZU1; TRPML1-inducible cells, Ca2+ dye fluorescence, FDSS; stronger effect = lower value; inhibition of EC80 agonist-evoked calcium signal; activity change, negative = inhibition, % (test concentration not listed); 0.02% of 390,000 active; in the data active means activity change below about -50%; inconclusive means about -30% to -50%; inactive means above about -30%;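 note: stimulus is agonist 54-4 at its EC80 concentration; % is set by controls: 0 for no effect and ±100 for the full control effect; compound concentration not given in the record; the text of the record puts the active cut at -80%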
Target sequence (Q9GZU1 whole entry, looked up): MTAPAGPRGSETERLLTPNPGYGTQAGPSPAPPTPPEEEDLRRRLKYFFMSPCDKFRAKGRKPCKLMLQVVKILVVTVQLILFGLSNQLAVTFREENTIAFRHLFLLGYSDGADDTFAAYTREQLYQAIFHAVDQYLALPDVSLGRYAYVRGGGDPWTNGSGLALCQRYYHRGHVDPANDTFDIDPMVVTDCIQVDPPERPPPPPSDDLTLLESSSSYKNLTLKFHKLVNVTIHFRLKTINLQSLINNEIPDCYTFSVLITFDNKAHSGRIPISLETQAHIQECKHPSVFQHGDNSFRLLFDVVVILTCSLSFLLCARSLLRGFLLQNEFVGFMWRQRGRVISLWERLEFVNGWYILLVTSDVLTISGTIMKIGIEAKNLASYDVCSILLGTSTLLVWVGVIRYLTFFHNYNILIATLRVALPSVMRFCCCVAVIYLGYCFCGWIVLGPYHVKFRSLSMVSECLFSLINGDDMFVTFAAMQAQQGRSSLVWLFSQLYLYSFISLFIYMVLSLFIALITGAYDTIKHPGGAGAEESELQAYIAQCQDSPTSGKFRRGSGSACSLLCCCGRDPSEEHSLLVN
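Tet-induced TRPML1-DL cells loaded with Ca8 no-wash calcium dye were read kinetically on FDSS. Compound addition was followed by EC80 agonist 54-4 (4 uM final); inhibition was read over 110 s.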
D2 ag – human D2 receptor agonism in beta-arrestin assay; DiscoveRx PathHunter D2 beta-arrestin, luminescence, 90 min; 100% = 57 uM dopamine signal; activation, % (test concentration not listed); 0.084% of 360,000 active; AID 624465; P14416; in the data active = activation above about 40%; inconclusive = about 15% to 40%; inactive = below about 15%; note: compound concentration not given in the record; the text of the record calls up to 30% inactive
Target sequence (P14416 whole entry, looked up): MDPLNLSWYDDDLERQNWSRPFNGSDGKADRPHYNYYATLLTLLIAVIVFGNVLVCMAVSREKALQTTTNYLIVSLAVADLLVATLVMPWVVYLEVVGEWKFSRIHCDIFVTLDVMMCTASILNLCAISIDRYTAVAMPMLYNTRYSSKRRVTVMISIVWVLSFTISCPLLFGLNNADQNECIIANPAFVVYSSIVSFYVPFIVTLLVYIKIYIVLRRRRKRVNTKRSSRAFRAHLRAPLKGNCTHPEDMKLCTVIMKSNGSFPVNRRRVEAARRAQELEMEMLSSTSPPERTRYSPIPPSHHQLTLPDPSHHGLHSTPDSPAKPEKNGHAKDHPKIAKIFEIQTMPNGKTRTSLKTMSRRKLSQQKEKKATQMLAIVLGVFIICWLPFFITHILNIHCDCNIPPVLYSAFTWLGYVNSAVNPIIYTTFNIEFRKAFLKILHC
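DiscoveRx PathHunter D2 beta-arrestin cells (2,100/well) attached overnight, then compound-stimulated 90 min at 37 C in HBSS/10 mM HEPES/0.1% Tween-20 buffer; beta-galactosidase complementation read by luminescence after 1 h at ambient temperature. Dopamine 57 uM final (EC100) as control.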
D2 PAM – positive allosteric modulators of human D2 dopamine receptor. DiscoveRx D2 beta-arrestin cells, luminescence, 90 min; 100% = 57 uM dopamine signal. potentiation, % (test concentration not listed). 0.23% of 360,000 active. AID 624464; active = potentiation of 50% or more; inconclusive = 30% to 50%; inactive = 30% or less;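 note: compound concentration not given in the record; tested on top of an EC20 dose of dopamine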
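PathHunter beta-arrestin assay in DiscoveRx D2 cells. Compounds were added with an EC20 of dopamine (50 nM final) for 90 min at 37 deg C. Luminescence was read 1 h after detection reagent, with 57 uM dopamine as the EC100 control.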
TRPML1 agonist – human mucolipin-1 channel agonism; Q9GZU1; TRPML1-expressing cells, Ca2+ dye fluorescence, FDSS; host cell line not named in the record; reference of the full effect not given here; activation, % (no concentration beside the values); 0.12% of 410,000 active; AID 624414; in the data active = activation above about 50%; inconclusive = about 30% to 50%; inactive = below about 30%; note: 0% is about no effect; the text of the record puts the active cut at 80%
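Tet-induced TRPML1-DL cells, 1,500 per well, cultured overnight, were loaded with a no-wash Ca2+ dye for 45–90 min. Calcium fluorescence was recorded on the FDSS for 110 s after compound addition, before the EC80 agonist (4 uM 54-4) was added.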
Six1-Eya2 blk – blocks human Six1 binding to Eya2; Q15475+O00167; AlphaScreen GST-Six1/His-Eya2 binding, biochemical; stronger effect = lower value; control for the full effect not named in the record; activity change, % (concentration not given with the values); 0.56% of 360,000 active; AID 651725; in the data active = activity change below about -65%; inconclusive = about -30% to -65%; inactive = above about -30%; note: % is set by controls: 0 for no effect and ±100 for the full control effect
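AlphaScreen with GST-Six1 and His-Eya2 (5X mix: 250 nM and 500 nM), glutathione donor and nickel acceptor beads; buffer 50 mM Tris pH 8.0, 300 mM NaCl, 1 mM TCEP; 1 h at 37 C in the dark.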
PINK1 modulator – PINK1 expression modulation. 0.2% of 410,000 active. PINK1 immunofluorescence, high-content cytometry, 24 h. Potency, µM (highest dose often 76.6 µM), for inactives: at the highest dose activation (PINK1 increase), usual class: activators; active = well fitted activation curve with a large enough effect; inconclusive = small, poorly fitted or top-dose-only effect; inactive = flat fitted curve, though single readings scatter; cell line not stated here;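 note: potency is the fitted concentration of half-maximal effect; % of control where 0% means no effect; nearly all actives have a fitted effect of over 65% in size; a mitochondrial uncoupler was the plate control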
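Decision-based qHTS: stable cells, 24 h exposure to five compound concentrations, CCCP as control. Fixed cells stained for PINK1 plus nuclear, mitochondrial and cell markers, cytometer read.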
Numbers without * were called inactive; u = inconclusive; x = no result given; [ ] = remark or other dose.

Fields – D2 PAM | PINK1 modulator | D2 ag | TRPML1 inh | TRPML1 agonist | Six1-Eya2 blk
> COc1ccc(C(C)(C)C)cc1NC(=O)CCn1[nH]c(=O)ccc1=O
  0 | 1.1% | 0.3 | -2 | 0.5 | -1
> CC1CCN(C(=O)Cn2cc(SCC(=O)NCc3ccccc3)c3ccccc32)CC1
  x | -1.2% | x | 53 | 3.4 | x
> CN[C@H]1C[C@H]2c3[nH]c4ccc(-c5ccc(OC)cc5)cc4c3CCN2C(=O)[C@H]1[C@H](C)O
  5 | -2.8% | -2.9 | 0 | 4.6 | u
> O=C(c1ccc2c(c1)N(Cc1ccccc1)CCS2)N1CCOCC1
  -8 | 1.3% | -0.2 | 3 | 0.6 | -6
> COc1ccc(-c2cc(C(=O)N3CCN(C(c4ccccc4)c4ccccc4)CC3)no2)cc1
  -5 | 2.2%[38.3 µM] | -1.5 | 12 | 2.1 | -11
> O=C(NCCCN1CCN(c2cccc(Cl)c2)CC1)c1ccc2nc(Cc3ccccc3)oc2c1
  x | 2.2% | x | 9 | 1.6 | x
> COC(=O)Cc1csc(/N=C/c2c(O)n(-c3cccc(C(F)(F)F)c3)c(=O)c3ccccc23)n1
  -1 | 4.1% | -2.4 | 16 | -0.5 | -2
> N#CC1=C(N)Oc2n[nH]c(-c3cccs3)c2C1c1ccccc1C(=O)O (stereo unspecified)
  -11 | 1.6% | -4.7 | 11 | -0.1 | 2
> COc1ccc(C(C(=O)NCC2CCCO2)N(C(=O)c2snc(C(N)=O)c2N)c2ccccc2C)cc1OC (stereo unspecified)
  -8 | 4.4% | -1.6 | -11 | -1.0 | -6
> CCOC(=O)N1CCN(CC(=O)Nc2sc(CC)cc2C(=O)c2ccc(OC)cc2)CC1
  -10 | -0.3% | -9.0 | 0 | 1.2 | -19
> Cc1cccc(-n2ncc(C(=O)NC3CCCC3)c2C2CCN(C(=O)OC(C)(C)C)CC2)c1
  -2 | 0.7% | -1.0 | -9 | -0.1 | -2
> CC1(c2ccc(Cl)cc2)NC(=O)CS1 (stereo unspecified)
  1 | 0.2% | -3.8 | -10 | -0.1 | 3
> Cc1cc(C)nc(NS(=O)(=O)c2ccc(NC(=O)c3ccc(N4C(=O)CCC4=O)cc3)cc2)n1
  -7 | 0.0% | 1.4 | 5 | 1.9 | 0
> O=C(Cn1nnc(-c2ccc(Cl)cc2)n1)N1CCN(C(=O)c2ccco2)CC1
  1 | 2.0% | -2.7 | 8 | 0.2 | 1
> Cc1cc(C)cc(NC(=O)C(NCC2CCCO2)c2ccccc2)c1 (stereo unspecified)
  -26 | -0.2% | -4.2 | -6 | 1.0 | 2
> COc1cc(/C=C/C(=O)OCC(=O)N2CCCC2)cc(OC)c1OC
  -6 | -0.9% | -3.6 | -1 | -0.9 | -1
> Cc1nn(C)c(C)c1CN(Cc1nc(-c2ccc(F)cc2F)oc1C)C1CC1
  -6 | 0.7% | -5.8 | -4 | 0.6 | -3
> O=C(Nc1ccc2c(c1)C(=O)N(c1ccccc1)C2=O)c1cccs1
  -89 | 7.6% | u | 51 | 1.7 | -17
> COC(=O)c1ccccc1Sc1ncnc2onc(C)c12
  -52 | 0.5% | 2.3 | 13 | 0.1 | -15
> CCOC(=O)N(CC)OC(=O)Nc1ccc(Cl)cc1
  -19 | x | -1.7 | -8 | -0.3 | 1
> CS(=O)(=O)N1CCN=C1SCc1ccc([N+](=O)[O-])cc1
  -2 | -0.9% | -0.4 | -7 | 2.8 | -1
> CCCCN(Cc1ccccc1)S(=O)(=O)c1ccc2c(c1)n(C)c(=O)c(=O)n2C
  -11 | 1.4% | -2.6 | -3 | 1.5 | -8
> COc1ccc(C(=O)NC(=O)CSc2nc3nc(C)cc(C)n3n2)cc1
  -2 | -1.5% | 0.8 | -1 | 0.0 | -4
> CCN(CC)S(=O)(=O)c1ccc(N/N=C(\C)c2cccnc2)nc1
  -10 | 6.9% | 1.4 | x | x | 12
> CCOc1ccccc1CNC(=O)CCn1c(=O)c2cccn2c2ccc(F)cc21
  x | -0.2% | x | -5 | 4.7 | x
> Cn1c(=O)n(Cc2ccccc2Cl)c(=O)c2c1[nH]c(=S)n2C
  2 | 2.1% | 5.0 | -11 | -0.7 | 8
> O=C(COC(=O)CC1SC(N2CCCC2)=NC1=O)Nc1c(F)c(F)c(F)c(F)c1F (stereo unspecified)
  -4 | -0.2% | -1.0 | 7 | 0.6 | 1
> CCOc1ccc2nc(S(=O)(=O)NC(=O)C3(C)CCN3C(=O)c3c(C)noc3C)sc2c1 (stereo unspecified)
  -6 | -0.3% | -2.2 | x | -0.5 | 2
> O=C(N/N=C/c1ccc([N+](=O)[O-])cc1)c1cccnc1
  -15 | -0.1% | 3.2 | x | x | 14
> COc1cc(NC(=O)CSc2nnc3n2C(C)(C)Cc2ccccc2-3)cc(OC)c1
  -1 | 8.2% | 0.7 | 29 | 3.7 | 6

As a short view, part of the list above:
Fields – D2 PAM | PINK1 modulator | D2 ag | TRPML1 inh | TRPML1 agonist | Six1-Eya2 blk
> O=C(N/N=C/c1ccc([N+](=O)[O-])cc1)c1cccnc1
  -15 | -0.1% | 3.2 | x | x | 14
> COc1cc(NC(=O)CSc2nnc3n2C(C)(C)Cc2ccccc2-3)cc(OC)c1
  -1 | 8.2% | 0.7 | 29 | 3.7 | 6

(further entries)
Fields – D2 PAM | PINK1 modulator | D2 ag | TRPML1 inh | TRPML1 agonist | Six1-Eya2 blk
> COc1ccc(S(=O)(=O)c2c(O)c(C)cc(NC(=O)c3ccccc3)c2C(C)C)cc1
  x | 2.1% | x | 3 | -0.3 | x
> CC1(C(=O)NC2CCCCC2)CCC(=O)N1C1CCN(Cc2ccccc2)CC1 (stereo unspecified)
  -6 | 2.6% | -5.7 | x | -0.3 | 15
> CC(C)OCCCn1c(-c2ccco2)nc2nc3ccccc3nc21
  -2 | 19%[38.3 µM] | -2.1 | 37 | 0.3 | -16
> COC(=O)Cc1ccc(NC(=S)NCCSc2ccc(Cl)cc2)cc1
  -1 | 9.8% | -2.6 | -4 | 0.3 | -13
> COC(=O)C(O)(CC(=O)Nc1ccc(Cl)cc1F)C(F)(F)F (stereo unspecified)
  -1 | x | -1.5 | -13 | 0.3 | -1
> COCCCNC(=O)CC[C@H]1O[C@@H](n2cnc3c(NC(=O)c4ccccc4)ncnc32)[C@H](O)[C@@H]1O
  -5 | 0.1% | -3.3 | x | 0.0 | 11
> C=CCNC(=O)C1CCN(S(=O)(=O)c2ccccc2)CC1
  -5 | 3.7% | -3.1 | 1 | -0.9 | 0
> N#Cc1ccc(N/N=C/c2cn(-c3ccccc3)nc2-c2ccccc2)c([N+](=O)[O-])c1
  -12 | 2.8% | -1.5 | 21 | 0.4 | -10
> COc1ccc(CNC(=O)COC(=O)c2ccc(C(=O)c3ccccc3)cc2)cc1
  -7 | -0.4% | -5.2 | -8 | 1.1 | 6
> O=C(NC1=NCCS1)C1CC(=O)N(c2ccc(Cl)cc2)C1 (stereo unspecified)
  0 | 0.7% | -1.2 | 1 | 0.8 | 5
> CC1CCCCN1C(=O)C12CCC(C)(C(=O)C1)C2(C)C (stereo unspecified)
  0 | -3.8%[38.3 µM] | -0.9 | 48 | 0.5 | 6
> Clc1cccc(Nc2nc(-c3ccncc3)cs2)c1
  -17 | 0.2% | 6.6 | 1 | 1.9 | 1
> CC(C)NC(=O)c1onc(CSc2ccccc2F)c1C(=O)O
  -36 | 2.9% | -0.7 | 2 | -0.7 | 7
> COc1ccc(Cl)cc1NC(=O)c1cc2c(=O)n3ccccc3nc2s1
  x | 1.0% | x | 6 | 0.0 | x
> CCCc1nc(SCC(=O)NCC2CCCO2)c2c(=O)n(C)c(=O)n(C)c2n1 (stereo unspecified)
  4 | 0.4% | 8.9 | -6 | -0.4 | 10
> CCNC(=O)C1CCCN(C(=O)c2ccc(OC)c(OC)c2)CC1 (stereo unspecified)
  -2 | -0.9% | -1.3 | x | 0.0 | 14
> CC(=O)Nc1cc2c3c(c1)CCN3C(=O)CC2
  -10 | 0.0% | 1.5 | -1 | 0.1 | 13
> CC1(C)OC(C(O)(c2ccccc2)c2ccccc2)[C@@H](C(O)(c2ccccc2)c2ccccc2)O1 (stereo partly specified)
  -4 | 0.9% | -1.2 | 15 | 0.7 | 5
> COc1ccc(-c2oc3ccccc3c2C(=O)OCc2ccc([N+](=O)[O-])cc2)cc1
  -12 | 5.6% | -4.2 | -2 | -0.4 | 0
> Nc1nc2nc(-c3ccccc3)cc(C(F)(F)F)c2s1
  4 | 1.3% | -1.3 | 13 | 0.8 | -2
> Cc1ccc(S(=O)(=O)Nc2cccc(C(=O)NCc3cccnc3)c2)cc1F
  -25 | 12% | -3.5 | -10 | -0.2 | -2
> O=C(NCC1CCCO1)c1onc(CSc2cccc3ccccc23)c1C(=O)O (stereo unspecified)
  -4 | 0.0% | -2.6 | -17 | -0.5 | -7
> COc1cc(/C=N/NC(=O)CCC(=O)Nc2ccc(C)cc2)ccc1O
  -17 | 0.5% | -0.9 | 18 | 1.5 | -10
> CCOC(=O)c1cnc(-n2nc(C)cc2C)nc1N(CC)CC
  -7 | 4.4%[38.3 µM] | -4.0 | 4 | -0.7 | u
> Cc1c(C(=O)N2CCOCC2)sc(NC(=O)Cc2ccccc2)c1C#N
  2 | 2.1% | -3.6 | 0 | -0.5 | -3
> O=[N+]([O-])c1cc(F)cc(F)c1Nc1ccc(F)cc1
  1 | -2.0% | -3.2 | -8 | 1.9 | u
> CC(C)NC(=O)NC(=O)COC(=O)c1c2c(nc3ccccc13)CCC2
  5 | -1.4% | u | 18 | 0.7 | -6
> O=C(NCCS(=O)(=O)N1CCN(c2ccccc2F)CC1)c1ccc(Br)cc1
  -6 | 7.9% | -1.7 | -2 | 1.0 | 4
> OCc1cc(-c2ccccn2)no1
  -3 | -0.5% | -0.9 | -5 | -1.0 | 6

5 entries drawn at random from those above:
Fields – D2 PAM | PINK1 modulator | D2 ag | TRPML1 inh | TRPML1 agonist | Six1-Eya2 blk
> COc1ccc(Cl)cc1NC(=O)c1cc2c(=O)n3ccccc3nc2s1
  x | 1.0% | x | 6 | 0.0 | x
> CCOC(=O)c1cnc(-n2nc(C)cc2C)nc1N(CC)CC
  -7 | 4.4%[38.3 µM] | -4.0 | 4 | -0.7 | u
> O=C(NCC1CCCO1)c1onc(CSc2cccc3ccccc23)c1C(=O)O (stereo unspecified)
  -4 | 0.0% | -2.6 | -17 | -0.5 | -7
> Clc1cccc(Nc2nc(-c3ccncc3)cs2)c1
  -17 | 0.2% | 6.6 | 1 | 1.9 | 1
> COC(=O)Cc1ccc(NC(=S)NCCSc2ccc(Cl)cc2)cc1
  -1 | 9.8% | -2.6 | -4 | 0.3 | -13

Assay outcomes deposited in PubChem BioAssay by National Center for Advancing Translational Sciences (NCATS).
